High-throughput results as filed in PubChem BioAssay.
TRPML1 blocker: human mucolipin-1 channel inhibition; TRPML1-inducible cells, Ca2+ dye fluorescence, FDSS; active compounds read low; inhibition of EC80 agonist-evoked calcium signal; Q9GZU1; activity change, negative = inhibition, % (no concentration beside the values); 390,000 compounds, 0.02% hits; in the data active means activity change below about -50%; inconclusive means about -30% to -50%; inactive means above about -30%;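 also: stimulus is agonist 54-4 at its EC80 concentration; % is scaled to controls: 0 for no effect and ±100 for the full control effect; compound concentration not given in the record; the text of the record puts the active cut at -80%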
Target sequence (Q9GZU1 whole entry, looked up): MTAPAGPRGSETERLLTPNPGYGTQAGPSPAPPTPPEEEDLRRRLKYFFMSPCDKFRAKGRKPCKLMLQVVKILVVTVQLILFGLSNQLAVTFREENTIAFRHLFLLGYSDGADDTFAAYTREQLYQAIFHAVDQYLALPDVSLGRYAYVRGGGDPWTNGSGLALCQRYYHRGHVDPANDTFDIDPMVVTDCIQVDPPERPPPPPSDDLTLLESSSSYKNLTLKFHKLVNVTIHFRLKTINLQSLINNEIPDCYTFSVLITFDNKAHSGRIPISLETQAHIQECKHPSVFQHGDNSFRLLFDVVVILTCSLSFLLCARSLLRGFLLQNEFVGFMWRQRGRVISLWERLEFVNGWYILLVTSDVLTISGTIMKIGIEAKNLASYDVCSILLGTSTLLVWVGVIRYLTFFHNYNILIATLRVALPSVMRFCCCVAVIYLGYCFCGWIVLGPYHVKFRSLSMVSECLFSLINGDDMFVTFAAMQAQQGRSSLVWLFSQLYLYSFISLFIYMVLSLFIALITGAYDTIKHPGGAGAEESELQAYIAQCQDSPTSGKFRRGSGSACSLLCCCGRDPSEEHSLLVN
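TRPML1-DL cells, Tet-induced overnight (~16 h, 37 °C) at 1,500 cells/well, were loaded with Ca8 no-wash dye plus quencher for 45-90 min at room temperature. Compounds were pinned during FDSS kinetic reading; agonist 54-4 at EC80 (4 uM final) then added.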
ClpP mod: qHTS Assay for Activators of ClpP; purified B. subtilis ClpP, FRET peptide cleavage, 20 min; 340,000 compounds, 1.9% hits; Potency, µM (series often up to 57.5 µM), for inactives: at the top dose activity change, negative = active; AID 651965, 2013; ATP-dependent Clp protease proteolytic subunit (Bacillus subtilis (strain 168)), P80244; active = well fitted falling curve with a large enough effect; inconclusive = small, poorly fitted or top-dose-only effect; inactive = no such curve, though single readings can be large or run the other way; also: potency is read from the fitted curve at half-maximal effect; the source files actives as falling curves though it sought activators and does not explain the sign; nearly all actives have a fitted effect of over 65% in size; many hits overshoot -100%
Target sequence (P80244 whole entry, looked up): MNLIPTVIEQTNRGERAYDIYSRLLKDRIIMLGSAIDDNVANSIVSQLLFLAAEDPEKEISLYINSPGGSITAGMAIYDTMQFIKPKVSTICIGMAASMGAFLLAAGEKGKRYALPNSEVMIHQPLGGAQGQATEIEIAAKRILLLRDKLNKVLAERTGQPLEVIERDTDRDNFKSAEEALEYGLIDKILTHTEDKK
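Buffer: 100 mM Tris/HCl pH8, 100 mM KCl, 0.05% low protease BSA, 2.5% glycerol, 0.01% Tween-20. ClpP 10 microg/mL final; 20 min RT; delta FRET normalized to ADEP and DMSO controls.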
TRPML1 ag: activates the human TRPML1 channel; Q9GZU1; 410,000 compounds, 0.12% hits; activation, % (test concentration not listed); TRPML1-expressing cells, Ca2+ dye fluorescence, FDSS; host cell line not named in the record; reference of the full effect not given here; in the data active = activation above about 50%; inconclusive = about 30% to 50%; inactive = below about 30%; also: 0% is about no effect; the text of the record puts the active cut at 80%
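Kinetic FDSS Ca2+ read in Tet-induced TRPML1-DL cells (ABD Ca8 dye plus quencher, 45-90 min RT loading): baseline, then compound, then 110 s agonist window; EC80 agonist 54-4 at 4uM final added afterwards for a 110 s antagonist window.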
gsp antagonist: antagonists of gsp mutant (McCune-Albright syndrome). Potency, µM (titrated, usually from 76.9 µM), inactives show top-dose activity change, negative = inhibition, usual class: inhibitors. gsp-mutant cells, cAMP HTRF, 30 min; control for the full effect not named in the record. 340,000 compounds, 0.4% hits; active = falling curve of any shape with a large fitted effect; inconclusive = falling curve, mostly with a smaller effect; inactive = flat or rising curve; cell line not stated here;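 also: intracellular cAMP measured with PDE inhibitor Ro 20-1724 present during compound exposure; potency is read from the fitted curve at half-maximal effect; % is scaled to controls: 0 for no effect and ±100 for the full control effect; nearly all actives have a fitted effect of over 65% in size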
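Cells, 2000/well, grown 16–24 h in DMEM 10% FBS with 0.5 mg/ml G418, then compounds plus […] (300 uM addition stock), 30 min at 37C. cAMP read by HTRF (cAMP-d2 and anti-cAMP antibody-K in lysis buffer) after 30 min RT.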
Menin-MLL FL inh: displaces fluorescein MLL peptide from human menin | Fluorescence polarization, fluorescein-MLL peptide displacement from menin | FP activity change, % at 61.4 µM | 290,000 tested, under 10 active | AID 1766; inconclusive = falling polarisation curve, or a change in total fluorescence; inactive = total fluorescence flat and polarisation flat or rising; no compound was filed as active; the % refers to the polarisation; negative = inhibition;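 also: % of control where 0% means no effect; inhibitors lower the polarisation; unlabelled MLL peptide was the positive control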
gsp agonist: gsp mutant agonism; gsp mutant cells, cAMP HTRF, 30 min; control for the full effect not named in the record; Potency, µM (highest dose often 76.9 µM), inactives show top-dose activation (cAMP increase), most hits filed as activators; 340,000 compounds, 0.13% hits; AID 624287; active = well fitted activation curve with a large enough effect; inconclusive = small, poorly fitted or top-dose-only effect, or another doubt; inactive = no such curve, though single readings can be large or run the other way; cell line not stated here;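 also: phosphodiesterase inhibitor Ro 20-1724 added with compounds to block cAMP breakdown; potency is read from the fitted curve at half-maximal effect; nearly all actives have a fitted effect of over 60% in size; about a fifth of the inactives were tested at one dose only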
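Cells stably selected in G418 were plated at 2000/well, grown 16-24 hr, then given compounds in DMSO with the PDE inhibitor […] (300 uM solution added) for 30 min at 37C; cAMP was read by HTRF.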
The depositor's hits bear a star; ? = inconclusive; nt = no result given; & = joins results of further samples; [ ] = remark or other dose. Compounds as they come; 2.1% or so of the library scored in one or more.

SMILES	TRPML1 blocker	ClpP mod	TRPML1 ag	gsp antagonist	Menin-MLL FL inh	gsp agonist
COc1ccc2cc3cc(C(=O)Nc4ccc5c(c4)OCO5)oc3nc2c1	1	-2.3%	-0.8	8%	2.8	11%
CC(=O)Nc1ccc(S(=O)(=O)NCCSCc2ccccc2Cl)cc1	-3	-4.2%	1.4	-10%	0.1	-4%
COc1ccc(OC)c(C(C)NC(=O)Nc2cccc(C(C)=O)c2)c1 (configuration not stated)	2	1.1%	2.9	-9%	-1.5	-14%
COc1ccc(CC(=O)c2ccc(O)cc2O)cc1	nt	1.6%	nt	-2%	1.0&-3.6	nt
COc1ccccc1CNC(=O)COc1ccc(S(=O)(=O)N2CCOCC2)cc1C	-6	nt	0.9	-13%	0.0	9%
Cc1cc(-c2n[nH]c(=S)n2/N=C/c2sccc2C)n[nH]1	-16	-0.8%	-0.7	-10%	-0.8	-30%
Cc1ccc(SC(C)C(=O)N2CCC(C(N)=O)CC2)cc1 (configuration not stated)	7	nt	-1.0	19%	-6.1	-3%[15.4 µM]
Nc1cc(S(=O)(=O)N2CCCCC2)ccc1Oc1ccccc1	13	-1.4%	1.1	17%	-1.6	1%
COc1ccc(-c2csc(-c3c(N)c(C(=O)c4ccccc4)n4ccccc34)n2)cc1OC	14	0.0%	2.3	nt	nt	nt
Cc1ccc(CCNC(=O)C2CCCN(S(=O)(=O)c3ccc4c(c3)oc(=O)n4C)C2)cc1 (configuration not stated)	32	-0.8%	-0.8	nt	nt	nt
Cc1cc(C)n2nc(C(=O)OCC(=O)NCc3ccccc3)nc2n1	3	0.3%	-0.7	0%	nt	-7%
O=C1COc2ccc(S(=O)(=O)Nc3cccc(Cl)c3)cc2N1	-1	1.2%	-0.6	14%	nt	-36%[inhibitor]
Cc1cc(-c2nn(C)c(=O)c3ccccc23)cc(C)c1O	1	1.2%	-1.3	8%	3.8	-3%
CCCSc1nc2c(c(=O)n(C)c(=O)n2C)n1C	-9	5.2%	-0.1	6%	-10	18%
O=C(COC(=O)c1ccc(F)cc1F)Nc1ccc(S(=O)(=O)N2CCOCC2)cc1	-5	0.0%	-1.3	nt	nt	-25%
COc1cc2nc(CCc3ccccc3)oc(=O)c2cc1OC	-7	-0.9%	0.6	-16%	2.7	2%[15.4 µM]
CN(Cc1ccccc1)C(=O)c1ccc(NC(=O)Cc2ccc(NC(=O)C3CCN(C(=O)C4CCC4)CC3)cc2)cc1	3	0.5%	-0.6	4%	nt	nt
COC(=O)c1ccccc1NC(=O)CN1CCN(C(=O)c2ccco2)CC1	21	-1.4%	0.0	-2%	6.6	-14%
CC(NC(=O)c1ccc2ccccc2n1)c1ccccc1 (configuration not stated)	-17	nt	1.0	4%	-0.2	2%
CCn1c(SCC(=O)N2CCOCC2)nc2c(c1=O)SC(C)C2 (configuration not stated)	46	-0.5%	1.9	-7%	2.7	?
Cc1onc(-c2c(Cl)cccc2Cl)c1C(=O)NC1CCCCC1	22	nt	0.2	-16%	nt	-6%
CCOc1cc(C2NC(=O)NC(C)=C2C(=O)OCC2CCCCC2)ccc1O (configuration not stated)	31	-7.0%	-0.2	-2%	-0.1	-6%[15.4 µM]
CN1CCN(C(=O)c2ccc3ccccc3c2)CC1	5	-1.0%	-0.1	11%	-0.2	-39%[inhibitor]
Cc1ccc(Cn2c(=O)sc3ccccc3c2=O)cc1	37	-0.8%	-0.3	0%	3.4	3%
Cc1ccc(S(=O)(=O)Nc2ncnc3sccc23)cc1C	11	0.0%	-0.5	-3%	nt	-4%
COc1ccc(S(=O)(=O)N2CN3CCN(C3)C2)cc1OC	0	-1.2%	1.4	1%	-1.4	6%
COc1ccc(N(C(=O)CNC(=O)c2cccs2)C(C(=O)NCC2CCCO2)c2ccccc2)cc1OC (configuration not stated)	2	nt	-0.1	2%	-0.9	-3%[15.4 µM]
Cc1nc2ccc(NS(=O)(=O)c3c(F)cccc3F)cc2s1	9	3.6%	1.2	-12%	nt	12%[15.4 µM]
CCCn1c(SCC(=O)N2CCN(S(=O)(=O)c3ccc(Cl)cc3)CC2)n[nH]c1=O	8	-1.1%	0.0	-17%	1.1	7%
C=CCn1c(CSCc2ccccc2)nnc1SCC(=O)NCc1ccccc1	-22	-0.4%	-0.9	-1%	3.5	-14%

A second format for part of the listing above:
COc1ccc(OC)c(C(C)NC(=O)Nc2cccc(C(C)=O)c2)c1 (configuration not stated)
  TRPML1 blocker: 2
  ClpP mod: 1.1%
  TRPML1 ag: 2.9
  gsp antagonist: -9%
  Menin-MLL FL inh: -1.5
  gsp agonist: -14%
COc1ccc(CC(=O)c2ccc(O)cc2O)cc1
  TRPML1 blocker: nt
  ClpP mod: 1.6%
  TRPML1 ag: nt
  gsp antagonist: -2%
  Menin-MLL FL inh: 1.0&-3.6
  gsp agonist: nt
COc1ccccc1CNC(=O)COc1ccc(S(=O)(=O)N2CCOCC2)cc1C
  TRPML1 blocker: -6
  ClpP mod: nt
  TRPML1 ag: 0.9
  gsp antagonist: -13%
  Menin-MLL FL inh: 0.0
  gsp agonist: 9%
Cc1cc(-c2n[nH]c(=S)n2/N=C/c2sccc2C)n[nH]1
  TRPML1 blocker: -16
  ClpP mod: -0.8%
  TRPML1 ag: -0.7
  gsp antagonist: -10%
  Menin-MLL FL inh: -0.8
  gsp agonist: -30%

The list continues.
SMILES	TRPML1 blocker	ClpP mod	TRPML1 ag	gsp antagonist	Menin-MLL FL inh	gsp agonist
COC(=O)C(CCSC)NC(=O)CNS(=O)(=O)c1ccc(F)cc1 (configuration not stated)	9	1.6%	0.0	19%	3.3	-35%
COc1ccc(S(=O)(=O)N(CCc2ccccc2)CC(=O)Nc2cc(C)ccc2C)cc1	61	-7.8%	0.5	nt	nt	nt
Cc1ccc(NC(=O)C(C)[n+]2ccccc2)cc1[N+](=O)[O-] (configuration not stated)	-4	-3.3%	-1.1	16%	3.6	9%[15.4 µM]
COc1ccc(-c2cccc(-c3cc(=O)oc4ccc(C(C)(C)C)cc34)c2)cc1	9	?	0.3	4%	0.2	nt
Cc1cc(/C=N/n2c(COc3ccccc3)nc3ccccc3c2=O)c(O)c([N+](=O)[O-])c1	-3	-2.1%	2.2	?	14	1%
CN1CCN(CCCOc2ccc(-c3ccccc3)cc2)CC1	10	1.7%	0.2	1%	-1.3	2%[15.4 µM]
COc1ccc(-n2c(C)ccc2-c2ccccc2)cn1	-6	nt	2.5	2%	?	-2%
CCCCOc1ccc(C2C(=O)N(C3CCCCC3)CC(=O)N2CC2CCCO2)cc1 (configuration not stated)	-9	-0.2%	0.4	7%	0.1	20%
CCC(=O)N=c1sc2c(C)cc(C)cc2n1CC(=O)OC	5	-5.0%	1.2	6%	-0.3	3%
O=C(COc1cccc(-n2cnnn2)c1)NCCC1=CCCCC1	-14	0.1%	-0.2	-5%	0.9	9%
CC(OC(=O)CN1C(=O)C2CC=CCC2C1=O)C(=O)Nc1ccc(F)cc1Cl (configuration not stated)	-11	0.3%	0.2	9%	nt	10%[15.4 µM]
CCN(CC)CC(=O)Nc1ccccc1SCC(=O)Nc1ccsc1C(=O)OC	0	-1.0%	0.7	-6%	-0.9	12%[15.4 µM]
O=C(Nc1ccc(Br)c2ccccc12)c1ccc2ccccc2c1O	8	?	-0.1	?	?	?
COc1ccc(/C=C2/N=C(c3cccs3)OC2=O)cc1OC(C)C	-8	-2.9%	0.3	4%	2.3	-33%
COc1ccc(SCC(CC(C)C)N2CCN(C)CCC2=O)cc1 (configuration not stated)	-18	nt	1.1	nt	0.1	nt
O=C(CN(C(=O)c1ccccc1Cl)C1CCCCC1)Nc1ccc(Cl)c([N+](=O)[O-])c1	3	-5.5%	2.2	?	7.2	-16%
COc1ccc(Cn2ccc3nc(C)c(C(=O)N4CCN(c5ccc(F)cc5)CC4)cc3c2=O)cc1	-21	-0.1%	0.6	nt	nt	nt
Cc1ccc2nc3c(c(Nc4ccccc4)c2c1)CCC3	29	nt	1.7	-30%	7.0	3%[15.4 µM]
CCCN(Cc1cccs1)C(=O)Nc1cc(Cl)ccc1C	5	0.4%	1.0	nt	nt	nt
Cc1ccc(-c2ccc(CCC(=O)O)n2-c2cccc(C(=O)O)c2)cc1	21	-10%	0.9	-19%	4.3	?
CCSc1nc(C2CC2)cc(-c2cccs2)c1C#N	22	?	2.9	-27%	4.5	9%
N=c1oc2ccc(Br)cc2cc1C(=O)NCc1ccc(F)cc1	11	0.2%	-0.5	24%	nt	21%
COC(=O)c1c(-c2ccc(Cl)cc2)noc1N1CCN(c2ccc(F)cc2)CC1	-8	-0.5%	-1.0	nt	nt	nt
Cc1nn2c(NCCCn3ccnc3)cc(C(C)C)nc2c1-c1ccccc1	32	nt	3.1	?	1.4	-2%[15.4 µM]
Cn1ccnc1SCC(=O)c1cc2ccccc2o1	-2	-0.7%	1.2	0%	?	-24%
CCOc1cc(S(=O)(=O)NC2CC(C)(C)NC(C)(C)C2)ccc1F	3	-3.0%	0.1	11%	0.7	-76%[inhibitor]
Cc1nc2sc(C(c3ccco3)N3CCN(c4ccccc4F)CC3)c(O)n2n1 (configuration not stated)	7	0.4%	-0.4	1%	1.0	-27%
Cc1ccc(NC(=O)COC(=O)C(NS(=O)(=O)c2ccc(Cl)cc2)C(C)O)c(Br)c1 (configuration not stated)	4	-2.1%	0.4	2%	0.5	-16%
CCOCCCNCC(=O)NC1(C)C2CCC(C2)C1(C)C (configuration not stated)	33	0.1%	-0.1	-8%	4.9	15%
CCCCCN1C(C(=O)c2ccccc2)=C(NC(C)=O)c2ccccc2S1(=O)=O	-5	-1.3%	-0.9	nt	nt	nt
O=C(Cc1cccs1)N(c1ccc(Br)cc1)C1C=CS(=O)(=O)C1 (configuration not stated)	17	nt	0.2	-10%	-4.3	4%[15.4 µM]
Cc1ccc(S(=O)(=O)N2CN(CC3CCCO3)c3nc4ccccc4nc32)cc1 (configuration not stated)	-4	nt	0.9	-10%	nt	?
COc1cc(C(=O)Nc2ccc(C(C)=O)cc2)c(Br)c(OC)c1OC	-11	0.4%	1.5	-3%	8.6	28%
COC(=O)[C@]1(C)N[C@H](CN(C)C(=O)Nc2ccc(C)cc2)[C@@H]2C(=O)N(Cc3ccccc3)C(=O)[C@@H]21	-5	0.9%	-0.4	2%	nt	nt
CCOc1cc(C2c3c(oc4cc(C)cc(C)c4c3=O)C(=O)N2CCO)ccc1O (configuration not stated)	-20	0.4%	2.0	nt	nt	nt
COc1ccc(OC)c(/C=C/C(=O)OCC(=O)Nc2ccc(Cl)c(S(=O)(=O)N(C)C)c2)c1	-15	nt	0.8	nt	0.3	0%[15.4 µM]
CN(C)S(=O)(=O)c1cc(NC(=O)COC(=O)CCc2ccccc2)ccc1Cl	33	nt	1.3	3%	-4.5	-33%[inhibitor]
